Screening results from PubChem.
Vif TR-FRET – HIV-1 Vif–A3G interaction blockers – biochemical, TR-FRET, GST-Vif 1-94, biotin-A3G peptide, dose response retest, primary screen (AID 1117319). 260,000 compounds, 0.57% hits. inhibition, %, or IC50 in µM where a hit was titrated. TR-FRET GST-Vif / biotin-A3G peptide binding; higher % means a stronger effect; test concentration not given here; strong numbers were not always called active;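 active means above the screen mean plus three standard deviations and confirmed in dose response; inconclusive means results disagree or hit not tested in dose response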;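 further: Vif residues 1-94 fused to GST binding biotinylated APOBEC3G peptide 110-148; 0% = full assay without inhibitor and 100% = GST in place of GST-Vif; retest series ran down from 100 µM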
HNF4A DNA FP – change in binding of human HNF4 alpha to DNA. P41235. HNF4a-FITC DNA binding, fluorescence polarization, 1 h. activity change, % at 10 µM. 360,000 compounds, 0.3% hits; in the data active means activity change above about 30%, passing the limit was not always enough;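 further: controls were the assay level and a saturating level of protein; the project sought stronger binding though the title names inhibitors; some compounds called inactive have numbers as strong as hits; positive values seem to mean higher polarization but the record does not say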
Target sequence (P41235 whole entry, looked up): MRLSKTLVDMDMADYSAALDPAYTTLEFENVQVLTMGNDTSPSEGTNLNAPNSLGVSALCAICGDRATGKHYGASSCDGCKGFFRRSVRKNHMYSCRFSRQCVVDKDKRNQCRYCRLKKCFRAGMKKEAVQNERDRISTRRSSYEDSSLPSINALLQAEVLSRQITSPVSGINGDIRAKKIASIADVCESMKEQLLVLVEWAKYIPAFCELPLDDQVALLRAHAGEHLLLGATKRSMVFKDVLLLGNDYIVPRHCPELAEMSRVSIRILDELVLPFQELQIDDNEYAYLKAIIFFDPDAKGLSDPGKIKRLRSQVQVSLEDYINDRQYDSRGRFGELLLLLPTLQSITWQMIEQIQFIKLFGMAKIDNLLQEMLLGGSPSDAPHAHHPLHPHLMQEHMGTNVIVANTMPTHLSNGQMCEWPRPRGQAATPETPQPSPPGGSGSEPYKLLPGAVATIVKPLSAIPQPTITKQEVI
RanGTP-Impb inh – inhibitors of RanGTP-importin-beta interaction, primary screen, biochemical, FRET, CFP-Ran, YFP-importin-beta, homogeneous | inhibition, % (test concentration not listed) | 300,000 compounds, 1.1% hits | cell-free CFP-Ran/YFP-importin-beta FRET ratio | AID 2216;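 active means most replicates above 15%; inconclusive means exactly half above 15%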;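 further: 0% = DMSO wells and 100% = Ran loaded with GDP instead of GTP; wells of about 40 µL received 100 nL stock; the first replicate is given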
AF4-AF9 inh – blocks AF4 peptide binding to human AF9. inhibition, % at 10 µM. AID 651704. 350,000 compounds, 0.47% hits. AlphaScreen, biotin-AF4 peptide binding to FLAG-AF9. P42568;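 active means every replicate reaching a set inhibition limit, whatever the replicate mean, cut at about 25% in these data; inconclusive means mean inhibition reaches that limit but some replicates miss it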;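 further: 0% = plate neutral control median and 100% = total signal loss; the record names both 10 and 1 µM as test concentration; the first replicate is given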
E coli growth – inhibitors of Escherichia coli growth | OD600, 23 h; stronger effect = lower value | OD600 absorbance (test concentration not listed) | 330,000 compounds, 0.21% hits | AID 1053175;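 active means OD600 absorbance below the run mean of sample wells minus 3.6 SD, in any replicate, cut at about 0.56 in these data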;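 further: stock transfer was 300 nL into about 60 µL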
FGF22 binding – FGF22 (human) thermal shift binding; recombinant FGF22 thermal shift, SYPRO orange fluorescence; percent of sucrose octasulfate shift, DMSO zero; AID 651658; Q9HCT0; 340,000 compounds, 1.5% hits; calls only at 9.99 µM;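 active means melting point raised past a set limit in the mean and every replicate; inconclusive means no clear call; three in four hits are not shown here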
Target sequence (Q9HCT0 whole entry, looked up): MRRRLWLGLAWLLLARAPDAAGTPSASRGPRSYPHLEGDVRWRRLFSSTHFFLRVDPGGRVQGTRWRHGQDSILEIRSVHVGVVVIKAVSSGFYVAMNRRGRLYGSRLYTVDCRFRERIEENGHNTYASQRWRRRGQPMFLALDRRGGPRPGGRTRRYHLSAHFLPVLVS
UCH37 inh – blocks the human deubiquitinase UCH37. 330,000 compounds, 0.33% hits. Q9Y5K5. AID 588478. purified proteasome/UCH37, Ub-AMC cleavage fluorescence. inhibition, % (no concentration beside the values);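 active means mean of two replicates above 20%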;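 further: 0% = compound-free wells with enzyme and 100% = wells lacking proteasome; stock transfer was 100 nL into about 20 µL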
Target sequence (Q9Y5K5 whole entry, looked up): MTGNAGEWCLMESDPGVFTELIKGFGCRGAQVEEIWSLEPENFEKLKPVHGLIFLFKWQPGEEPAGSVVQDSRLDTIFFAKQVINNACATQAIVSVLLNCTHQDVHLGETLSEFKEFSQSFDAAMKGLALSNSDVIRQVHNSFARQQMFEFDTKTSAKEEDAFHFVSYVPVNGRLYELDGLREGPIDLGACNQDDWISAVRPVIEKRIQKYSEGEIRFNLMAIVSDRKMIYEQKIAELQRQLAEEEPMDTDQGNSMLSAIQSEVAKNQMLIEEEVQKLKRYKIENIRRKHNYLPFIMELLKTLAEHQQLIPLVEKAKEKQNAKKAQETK
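Material: human UCH37 enzyme supplied as purified proteasome complex / Amount: 0.15 nM proteasome as dispensed / Buffer or medium: pH 7.4 Tris-HCl (50 mM) with ovalbumin, ATP-MgCl2, DTT / Times: preincubation 30 min, reaction 25 min, room temperature / Technique: AMC fluorescence from Ub-AMC cleavage, excitation 355 nm, emission 460 nm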
Active calls of the source: *; i = inactive; ? = inconclusive; / = not tested or not shown; & = joins results of further samples.

SMILES	Vif TR-FRET	HNF4A DNA FP	RanGTP-Impb inh	AF4-AF9 inh	E coli growth	FGF22 binding	UCH37 inh
Cc1onc(-c2c(Cl)cccc2Cl)c1C(=O)Nc1nccs1	/	0.3	2.2	-0.9	0.66	i	1.1
CCCN(CC(=O)Nc1ccccc1OC)C(=O)c1ccc2c(c1)NC(=O)C(C)S2 (centres undefined)	-7%	0.0	/	6.3	0.71	i	-2.2
COc1ccc(C2CC(C)=C(C#N)S(=O)(=O)C2C#N)cc1 (centres undefined)	17%	3.0	?	2.7	0.63	i	0.9
COc1cc2c(cc1OC)CN(c1nc(CN3CCOCC3)nc3sc4c(c13)CCC(C)C4)CC2 (centres undefined)	-2%	-2.4	7.1	/	0.7	/	5.0
COc1ccc(C(C)=O)cc1Cn1c(=O)cc(C)[nH]c1=O	/	-1.2	-2.1	-1.5	0.65	i	0.9
CCC1(c2ccccc2)NC(=O)N(CC(=O)Nc2nnc(C3CC3)s2)C1=O (centres undefined)	/	-0.4	-2.1	-2.6	0.69	i	4.9
O=C(NNC(=O)C(O)c1ccccc1)NC1CCCCC1 (centres undefined)	/	1.2	-0.8	0.9	0.68	i	0.5
N#CCC(=O)N/N=C/c1cccc(Oc2ccccc2)c1	?	-3.5	-1.0	-2.4	/	i	/
COc1cc(C#N)c(NC(=O)CN2CCC(C(N)=O)CC2)cc1OC	/	0.6	-1.9	-1.2	0.71	i	5.3
COc1ccc(CN2CCNC(=O)C2CC(=O)NCc2cn[nH]c2-c2ccccc2)c(F)c1 (centres undefined)	/	-2.8	-3.1	0.3	0.71	i	-1.0
CC(C)(C)c1nn(-c2ccccc2)c2[nH]c(=O)c(CNc3ccc4c(c3)OCCO4)cc12	5%	2.1	8.8	/	0.69	/	1.4
CC(NC(=O)C1CCN(C(=O)Nc2ccccc2)CC1)c1ccccc1Cl (centres undefined)	-2%	4.9	/	-0.1	/	i	/
Cc1ccc(S(=O)(=O)N2CCCC2)cc1C(=O)N1CCN(Cc2ccccc2)CC1	/	-1.2	2.5	-3.2	0.66	i	-1.6
CCN1C(=O)N[C@@H](c2cccc(F)c2)C(C(=O)OC)=C1C	/	4.0	?	-1.2	/	i	-3.6
Cc1ccc(S(=O)(=O)N2CCN(C(=O)COC(=O)Cc3ccc(F)cc3)CC2)c(C)c1	1%	1.8	/	3.4	0.69	i	1.1
Cc1cc(C)c(C(=O)COC(=O)CCn2c(C)csc2=O)cc1C	-5%	3.7	1.6	-14	0.66	i	1.7
CCn1c(SCC(=O)N2CCOCC2)nc(O)cc1=O	-2%	2.1	0.2	3.2	0.73	i	5.8
COc1ccc(CCNc2cc(C)nc3c(-c4ccc(Cl)cc4)cnn23)cc1OC	/	3.5	5.2	/	0.73	/	-369
COc1ccc(OC)c2c1CCC1(C2)NC(=O)NC1=O (centres undefined)	/	8.2	/	0.5	/	i	/
COc1ccc(/C=C(\NC(=O)c2ccc([N+](=O)[O-])cc2)C(=O)NCCN2CCOCC2)cc1	/	0.3	0.4	1.0	0.66	i	3.7
CC1CCC(NC(=O)CC2Oc3ccccc3NC2=O)CC1 (centres undefined)	-1%	1.3	-3.6	-2.5	0.73	i	4.0
Cc1ccc2nc(SCC(=O)Nc3ccc(F)c([N+](=O)[O-])c3)[nH]c2c1	/	-2.0	?	3.3	0.64	i	2.5
Cc1cn([C@H]2C[C@H](O)[C@@H](/C=C/C(=O)NCCCc3ccccc3)O2)c(=O)[nH]c1=O	/	0.5	/	-1.4	/	i	/
COc1cccc2c3c(c(=O)[nH]c12)CCC(C)(C)O3	-2%	3.1	?	/	0.66	/	0.0
CCOC(=O)NC(C(F)(F)F)(C(F)(F)F)P(=O)(c1ccccc1)c1ccccc1	4%&-7%	5.0	7.9	/	/	/	/
The listing continues:
SMILES	Vif TR-FRET	HNF4A DNA FP	RanGTP-Impb inh	AF4-AF9 inh	E coli growth	FGF22 binding	UCH37 inh
Cc1ccc(SCc2nc(-c3ccccc3)no2)cc1	?	0.0	-1.4	/	0.78	/	-2.3
CCC/C(=N\NC(=O)C1CC1)c1ccccc1	/	1.0	-0.3	-0.2	/	i	/
CCN(CC)C(=O)C1=C(C)N(Cc2ccc(C(C)(C)C)cc2)C(=O)C(CC(=O)NC(c2ccccc2)c2ccccc2)C1 (centres undefined)	1%	5.1	/	3.5	/	i	/
O=c1[nH]c2cc3ccccc3cc2nc1C(F)(F)F	-11%	-0.5	3.4	3.1	0.69	i	6.1
CCN(c1ccc(C)cc1C)S(=O)(=O)c1nnc(NC(=O)C(C)(C)C)s1	0%	7.4	-0.5	1.8	0.69	i	1.0
c1ccc(CCCCN2CCN=C2Nc2ccccc2)cc1	/	-1.9	/	7.8	0.68	i	0.8
Cc1ccc2c(c1)cc1c(=O)n(CC(=O)NCCCc3ccccc3)nc(C)n12	2%	-2.1	5.5	-1.3	0.67	i	-3.8
CC1CCCC(NC(=O)COC(=O)COc2ccc(C#N)cc2)C1C (centres undefined)	2%	1.0	/	8.4	0.68	i	4.6
O=C(C=Cc1ccccc1)c1c[nH]c2ccccc2c1=O	-4%	-1.8	/	-1.6	0.67	i	3.7
CC(C)(C)C(=O)CSc1nc2ccccc2o1	-11%	-0.9	?	-1.1	0.68	i	4.8
CCCOC1CCCN(C(=O)c2cc(Cl)c(Cl)cc2C(=O)O)C1 (centres undefined)	0%	2.1	?	/	0.7	/	5.8
Nc1ccc(N2N=C(N3CCCC3)CC2=O)cc1	14%	3.7	/	2.5	/	/	/
COc1cc(CC(=O)OCC(=O)NC(C)c2ccccc2)cc(OC)c1OC (centres undefined)	/	-3.1	/	0.2	0.67	i	0.9
CCCn1c(SCC(=O)NC(C)(C)C)nnc1C(C)C	-1%	-3.4	0.3	/	0.74	/	3.5
Cc1ccc(NC(=O)COc2coc(CN3CCc4ccccc4C3)cc2=O)cc1Cl	6%	-1.4	1.4	-0.4	0.69	i	-0.2
Cc1ccc(S(=O)(=O)N2CCN(Cc3nc4sc5c(c4c(=O)[nH]3)CCCC5)CC2)cc1	5%	9.7	1.1	0.2	0.73	i	2.1
COc1ccccc1C(=O)NCC(=O)N/N=C(\C)Cc1ccccc1	/	-1.1	0.6	-1.2	/	i	/
COC(CNC(=O)c1ccc(CS(=O)(=O)c2c(Cl)cccc2Cl)o1)OC	-1%	-3.5	2.8	1.9	0.69	i	5.3
N#CC(=C1C=CC(=NO)C(Cl)=C1)c1ccc(Cl)cc1	1%	1.8	/	0.5	/	i	/
CCOC(=O)[C@]12CCC=C1N(Cc1ccccc1)C(=O)[C@H](CC(=O)NCc1ccccc1)C2	/	1.9	/	-9.9	/	i	/
CN(CCN1CCOCC1)Cc1nc(-c2cccs2)no1	-10%	2.2	-2.2	-1.7	0.68	/	3.4
CCC(C)Sc1nc2c(c(=O)[nH]c(=O)n2C)n1CC(O)COc1cccc2ccccc12 (centres undefined)	-4%	1.2	1.1	/	0.81	/	5.4
CCNS(=O)(=O)c1ccc(NC(=O)c2cncc(Br)c2)cc1	-13%	2.5	4.0	-1.9	0.64	i	-1.5
CCC(=O)N(Cc1ccc(S(N)(=O)=O)cc1)C1CC(=O)N(c2ccccc2)C1=O (centres undefined)	7%	1.1	0.1	-1.8	0.69	/	-1.0
COC(=O)c1sccc1NC(=S)Nc1ccc(F)cc1	-5%	0.2	0.4	/	0.66	/	5.2

The last 2 entries of the part before open the next one.
SMILES	Vif TR-FRET	HNF4A DNA FP	RanGTP-Impb inh	AF4-AF9 inh	E coli growth	FGF22 binding	UCH37 inh
CCC(=O)N(Cc1ccc(S(N)(=O)=O)cc1)C1CC(=O)N(c2ccccc2)C1=O (centres undefined)	7%	1.1	0.1	-1.8	0.69	/	-1.0
COC(=O)c1sccc1NC(=S)Nc1ccc(F)cc1	-5%	0.2	0.4	/	0.66	/	5.2
Brc1ccccc1-c1nnc(CSc2nnnn2-c2ccccc2)o1	2%	-1.5	1.8	3.0	0.69	i	1.7
Cc1ccnc(NC(=O)CCCc2c[nH]c3ccccc23)c1	5%	-4.6	8.5	0.7	0.74	i	0.7
CCS(=O)(=O)N1CCN(S(=O)(=O)c2ccc(F)cc2)CC1	?	1.5	3.0	/	0.69	/	0.4
Oc1ccc(Oc2ncc(Cl)cc2Cl)cc1	-2%	-0.7	-1.3	-1.0	0.61	/	1.1
CC(C)(C)OC(=O)C[C@@H]1C/C=C\C[C@@H](CC(=O)N(CCO)Cc2ccccc2)C(=O)N2CCC[C@@H]2COC1=O	/	4.7	/	/	/	i	1.6
COc1ccc(/C=C/C(=O)Nc2ccc3c(c2)CCC3)cc1OC	-6%	-2.4	0.3	/	0.68	/	0.3
CCOc1ccc(Nc2nc(N)nc(CN(C)C3CCCCC3)n2)cc1	5%	0.9	0.6	/	0.67	/	5.0
COCCN1C(=O)N(C)[C@@H](c2ccccc2)C(C(C)=O)=C1C	-2%	-1.2	2.5	-4.8	/	i	2.1
OC(c1ccccc1)(c1ccccc1)c1nccc2ccccc12	3%	1.0	/	-0.4	0.62	i	0.1
COc1cccc(/C=N/Nc2cc(N3CCOCC3)ncn2)c1O	/	-1.1	?	8.7	/	i	/
O=C(NCCC1=CCCCC1)C1COc2ccccc2O1 (centres undefined)	3%	2.4	/	/	0.75	/	47*
CS(=O)(=O)N(C(=O)NC(=O)NC1CCS(=O)(=O)C1)C1CCCCC1 (centres undefined)	65%	1.6	1.0	-15	0.67	i	0.7
CCN(C(=S)NCc1ccccc1)c1cccc2ccccc12	-8%	-2.4	2.4	-2.7	0.73	i	0.6
CC(C)OC(=O)c1sc2nc(-c3ccccc3)ccc2c1N	-5%	5.0	20*	1.3	0.72	i	-132
O=C(CN1c2ccccc2Sc2ccccc21)N/N=C/c1ccc(Cl)cc1Cl	9%	-2.9	-5.0	3.1	/	i	/
O=[N+]([O-])c1cccnc1N1CCC(c2cc(-c3cccc(C(F)(F)F)c3)n[nH]2)CC1	-1%	-0.1	0.2	/	0.72	/	2.6
Cc1c(Cl)cccc1NC(=O)CSCc1cc(=O)[nH][nH]1	18%	-0.6	-1.4	/	0.65	/	4.6
Cc1ccc(C(=O)N2CCN(Cc3ccccc3)CC2)o1	/	3.5	-1.0	-0.5	0.69	i	2.2

11 successive compounds out of the list so far, for reference:
SMILES	Vif TR-FRET	HNF4A DNA FP	RanGTP-Impb inh	AF4-AF9 inh	E coli growth	FGF22 binding	UCH37 inh
Brc1ccccc1-c1nnc(CSc2nnnn2-c2ccccc2)o1	2%	-1.5	1.8	3.0	0.69	i	1.7
Cc1ccnc(NC(=O)CCCc2c[nH]c3ccccc23)c1	5%	-4.6	8.5	0.7	0.74	i	0.7
CCS(=O)(=O)N1CCN(S(=O)(=O)c2ccc(F)cc2)CC1	?	1.5	3.0	/	0.69	/	0.4
Oc1ccc(Oc2ncc(Cl)cc2Cl)cc1	-2%	-0.7	-1.3	-1.0	0.61	/	1.1
CC(C)(C)OC(=O)C[C@@H]1C/C=C\C[C@@H](CC(=O)N(CCO)Cc2ccccc2)C(=O)N2CCC[C@@H]2COC1=O	/	4.7	/	/	/	i	1.6
COc1ccc(/C=C/C(=O)Nc2ccc3c(c2)CCC3)cc1OC	-6%	-2.4	0.3	/	0.68	/	0.3
CCOc1ccc(Nc2nc(N)nc(CN(C)C3CCCCC3)n2)cc1	5%	0.9	0.6	/	0.67	/	5.0
COCCN1C(=O)N(C)[C@@H](c2ccccc2)C(C(C)=O)=C1C	-2%	-1.2	2.5	-4.8	/	i	2.1
OC(c1ccccc1)(c1ccccc1)c1nccc2ccccc12	3%	1.0	/	-0.4	0.62	i	0.1
COc1cccc(/C=N/Nc2cc(N3CCOCC3)ncn2)c1O	/	-1.1	?	8.7	/	i	/
O=C(NCCC1=CCCCC1)C1COc2ccccc2O1 (centres undefined)	3%	2.4	/	/	0.75	/	47*

Not all compounds are listed; the hit share may differ from the screen's.
